ugtP null kill – growth inhibition of ugtP-null S. aureus, primary screen, RN4220 ugtP deletion, OD600 | 16 h; some inactives read as strong as hits | growth inhibition, % (concentration not given with the values) | AID 1259309, 2017 | actives 0.54% (n = 330,000);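 active = z-score under -3 and OD600 up to 0.15 on both plates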;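 also: plate controls were untreated wells for no effect and antibiotic for full effect; wells of about 80 µL received 100 nL stock; the first replicate is given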
RN4220 kill – growth inhibition of S. aureus RN4220, primary screen, OD600; inhibition, % (test concentration not listed); actives 0.33% (n = 330,000); 16 h;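 active = z-score of -3 or lower and OD600 up to 0.18 on both plates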;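 also: plate controls were untreated cells for no effect and reference antibiotic for full effect; stock transfer was 100 nL into about 80 µL; one replicate is shown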
* hit, by the source's call.

SMILES	ugtP null kill	RN4220 kill
CCOc1ccccc1C=c1sc2nc(-c3ccco3)nn2c1=O	-7	2.9
Cc1cccc(-n2cnc(C(=O)NN=Cc3ccccc3)c2)n1	2	-3.3
O=C(Cc1ccccc1)NN=Cc1ccc(OCC(=O)Nc2ccccc2)cc1	7	-1.2
Cc1ccc(N2CC(C(=O)NN=Cc3cccc([N+](=O)[O-])c3)CC2=O)cc1 (stereo unspecified)	-2	-4.1
Cc1c(C=NNC(=O)c2csc3ccccc23)cnn1C	-1	-1.1
CCCCOc1ccc(C=NNC(=O)c2csc(C)c2C)cc1	-2	-9.5
COc1ccc(C=Nc2oc(-c3ccccc3)cc2C#N)cc1	3	10
CC(=NNC(=O)c1ccc2c(c1)OCO2)c1cccc(NC(=O)C(C)(C)C)c1	1	2.1
Cc1[nH]nc2c1C(=NO)CC(C)(C)C2	-2	-1.1
Cc1ccc(NC(=S)NC(=NS(=O)(=O)c2ccccc2)c2ccccc2)cc1	5	6.7
COc1cc(C=NNC(=O)c2cc(C34CC5CC(CC(C5)C3)C4)[nH]n2)ccc1O	-2	2.4
O=C(CC=NOCc1ccc(Cl)cc1)c1cnc(-c2ccccc2)s1	4	-2.2

Rewritten as labelled records: four of the compounds above
> COc1ccc(C=Nc2oc(-c3ccccc3)cc2C#N)cc1
  ugtP null kill: 3	RN4220 kill: 10
> CC(=NNC(=O)c1ccc2c(c1)OCO2)c1cccc(NC(=O)C(C)(C)C)c1
  ugtP null kill: 1	RN4220 kill: 2.1
> Cc1[nH]nc2c1C(=NO)CC(C)(C)C2
  ugtP null kill: -2	RN4220 kill: -1.1
> Cc1ccc(NC(=S)NC(=NS(=O)(=O)c2ccccc2)c2ccccc2)cc1
  ugtP null kill: 5	RN4220 kill: 6.7

Screens: PubChem BioAssay, ICCB-Longwood Screening Facility, Harvard Medical School

These rows are one share of the data; count on the stated rates, not on these rows.
